High-throughput results as filed in PubChem BioAssay.
HIV Env fusion: inhibitors of HIV Env-mediated cell fusion. HeLa-JRFL Env/CEM21 cell fusion, luciferase. inhibition, % at 12.3 µM. hit rate 1.1% among 360,000. AID 651610;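 active = mean replicate inhibition score of at least 50 and every replicate individually at or above 50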;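 note: 0% = plate neutral controls and 100% = maraviroc near 300 nM; one replicate is shown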
eIF4H inh: inhibitors of RNA binding by human eIF4H; Q15056; hit rate 0.94% among 290,000; eIF4H fluorescence polarization binding assay; AID 2012; inhibition, % at 35 µM;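 active = 50% or more with normal probe brightness, or confirmed in later tests; about a fifth of its hits are not listed in these tables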;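 note: calls also rest on retests at 20 µM and on dose response follow-up; 0% = protein and probe with vehicle and 100% = probe without protein; strong numbers were not always called active; many hits fall short of the cut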
Rce1 inhib: blocks yeast Ras-converting enzyme | Q03530 | yeast membranes, quenched prenylated peptide cleavage fluorescence | calls only | hit rate 0.27% among 290,000 | AID 2563;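 active = fall in fluorescence gain of 50% or more versus controls, with final raw signal at or below 3038400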;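 note: plate controls were neutral control wells for no effect and wells lacking membranes for full effect; tested at 10 µM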
Yeast UUG start: modulators of start codon recognition fidelity in yeast; AID 602363; activity score, % at 18.7 µM; hit rate 0.13% among 350,000; S. cerevisiae UUG-firefly luciferase reporter, luminescence/redox ratio;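 active = replicate mean at a twofold rise or more, about +100% in these data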;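 note: firefly luciferase made from a UUG start codon reports start codon fidelity; reporter light over untreated wells divided by growth signal over untreated wells; some hits fall short of that in this replicate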
MT1-MMP act inh: MT1-MMP (human) activation inhibition; P50281; HT1080 RFP-PRO-GFP cells, GFP/RFP ratio fluorescence, overnight; percent of plate control window, DMSO zero; hit rate 0.061% among 360,000; AID 651647; GFP/RFP ratio change, % at 20 µM;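 active = GFP/RFP ratio change of at least 30% with cell ATP level not reduced by more than half and red fluorescence within 50% of control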; note: strong numbers were not always called active
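Test system: HT1080 cells expressing an RFP-PRO-GFP fluorescent reporter construct / Compound dosing: single-point 20 µM compound, 1% DMSO / Schedule: cells overnight before dosing, compound overnight, 37 °C, 5% CO2 / Evaluation: GFP/RFP fluorescence ratio / Control set: DMSO and RFP-L50D-GFP cell wells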
PABP polyA inh: blocks human PABP binding to poly(A) RNA; hit rate 1% among 290,000; fluorescence polarization; inhibition, % at 35 µM;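 active = 50% or more with normal probe brightness, or confirmed in later tests; about a fifth of its hits are not listed in these tables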;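 note: calls also rest on retests at 20 µM and on dose response follow-up; controls were probe without protein and protein plus probe with vehicle; some compounds called inactive have numbers as strong as hits; many hits fall short of the cut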
Target sequence (P11940 whole entry, looked up): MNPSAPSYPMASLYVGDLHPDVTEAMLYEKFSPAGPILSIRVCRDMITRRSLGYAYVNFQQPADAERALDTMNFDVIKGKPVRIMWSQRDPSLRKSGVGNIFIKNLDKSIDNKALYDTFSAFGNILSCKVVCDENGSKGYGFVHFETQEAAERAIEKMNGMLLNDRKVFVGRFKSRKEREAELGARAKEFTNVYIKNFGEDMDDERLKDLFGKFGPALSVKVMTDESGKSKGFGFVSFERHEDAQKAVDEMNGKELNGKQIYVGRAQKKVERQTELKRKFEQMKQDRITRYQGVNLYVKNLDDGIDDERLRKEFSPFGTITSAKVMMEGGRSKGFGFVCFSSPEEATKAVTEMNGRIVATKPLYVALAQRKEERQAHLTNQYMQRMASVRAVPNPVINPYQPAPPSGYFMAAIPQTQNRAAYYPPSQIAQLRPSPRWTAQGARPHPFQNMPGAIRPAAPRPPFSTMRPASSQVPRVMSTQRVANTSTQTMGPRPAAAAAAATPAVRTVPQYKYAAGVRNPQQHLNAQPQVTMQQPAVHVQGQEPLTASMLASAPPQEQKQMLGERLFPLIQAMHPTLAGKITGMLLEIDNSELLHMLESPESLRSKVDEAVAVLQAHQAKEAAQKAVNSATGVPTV
CSC inhib: cancer stem cell inhibition | cancer stem cell-like cells viability, luminescence | inhibition, % at 7.5 µM | hit rate 1.1% among 300,000;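 active = mean at 75% or more and at least half the replicates too; tested in HMLE shEcad cells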;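 note: 0% = median of negative and 100% = median of positive control wells; the first replicate is given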
MT1-MMP act inh RFP: also measured in MT1-MMP act inh; calls as there; RFP signal change, %; measured here: RFP expression control read;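 0 = vehicle wells; hits needed this value within 50% of zero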
An asterisk follows results filed as active; i = inactive; nt = not tested or not shown; + = active, no number.

SMILES	HIV Env fusion	eIF4H inh	Rce1 inhib	Yeast UUG start	MT1-MMP act inh	MT1-MMP act inh RFP	PABP polyA inh	CSC inhib
COc1ccc(C(=O)Nc2oc(-c3ccccc3)c(-c3ccccc3)c2C#N)cc1OC	nt	-3	i	-13	-2	-9	-1	6
OCCNCc1cc(Br)ccc1OCc1ccc(Cl)cc1	3	6	i	2	8	6	-1	nt
CCCCN1C(=S)NC[C@@H]1C(C)CC (stereo not given in full)	-19	3	i	-6	2	8	1	-21
CCCCCn1cnc2sc(CC)cc2c1=O	nt	5	i	-6	2	6	-1	6
O=C(NCc1ccc2c(c1)OCO2)C(=O)NCC1OCCN1S(=O)(=O)c1ccccc1 (stereo not given)	-5	-2	i	8	3	0	-8	-2
CC(C)(C)NC(=O)c1cccc(NC(=O)CSc2ccccc2)c1	nt	-12	i	1	3	10	-10	nt
CCOC(=O)C1(CCCc2ccccc2)CCN(C(=O)c2cc(C)nc(C)n2)CC1	17	0	i	-2	-6	-6	-8	-12
CCC(CC)c1nnc(NC(=O)CS(=O)(=O)c2ccccc2)s1	-1	-2	i	-11	3	4	0	-14
CCC(C)[C@@H]1NC(=O)N(CCCN2CCCC2=O)C1=O (stereo not given in full)	-4	-8	i	-19	-2	5	11	-13
Cc1ccc(NC(=O)CCC(=O)N2CCOCC2)nc1	-2	nt	i	-10	0	4	nt	nt
CN(C)c1ccc(S(=O)(=O)c2ccc(Cl)cc2)cc1	4	0	i	-16	1	-3	-2	-10
COc1cc(S(=O)(=O)Nc2cccnc2)ccc1Cl	13	4	i	0	1	3	-9	-12
CC(=O)N/C(=C\c1ccccc1)C(=O)OCC(=O)NC(C)C12CC3CC(CC(C3)C1)C2 (stereo not given)	106*	-6	i	nt	1	-2	-1	1
O=[N+]([O-])c1ccc(/C=N/Nc2ccc3ccccc3c2)o1	-19	-6	i	-9	-30	33	-2	32
Fc1ccc(OCCOCCN2CCCC2)cc1	-41	nt	i	nt	3	6	nt	0
O=C(N/N=C/C(Cl)=C\c1ccccc1)c1cnccn1	-48	-10	i	-2	0	1	1	2
Cc1ccc(S(=O)(=O)N2CC3(C)CN(S(=O)(=O)c4ccc(C)cc4)CC(C)(C2)C3)cc1	nt	-3	i	2	13	6	0	-6
CC(=O)Nc1ccc(S(=O)(=O)NCC2CCC(C(=O)NC(C)c3ccccc3)CC2)cc1 (stereo not given)	9	2	i	nt	0	0	-17	-8
CCN=C1Cn2c(nc3scc(-c4ccccc4)c3c2=O)CN1CC	-264	-5	nt	-11	-5	-1	11	-7
C=CCNC(=O)c1ccccc1NC(=O)C1CC(=O)N(C(C)C)C1 (stereo not given)	14	-6	i	-10	0	0	-11	-1
O=C(Nc1ncc([N+](=O)[O-])s1)c1ccc2c(c1)OCO2	34	-6	i	-68	-5	-21	5	50
Cc1cc(C)nc(N(C#N)S(=O)(=O)c2ccccc2Cl)n1	-15	-5	i	-32	1	5	-7	-4
O=C(CN1CCCCC1)NC(=O)NC1CCCCC1	-15	nt	nt	-24	1	4	nt	nt
COc1ccc(CNC(=O)CCC(=O)c2ccc(F)cc2)cc1OC	-77	nt	nt	-10	-1	3	nt	-8
CC(=O)Nc1ccccc1C(=O)N1CC(C)OC(C)C1 (stereo not given)	nt	-4	i	-16	-6	-1	2	-4
Further results follow:
SMILES	HIV Env fusion	eIF4H inh	Rce1 inhib	Yeast UUG start	MT1-MMP act inh	MT1-MMP act inh RFP	PABP polyA inh	CSC inhib
O=C(O)C1C2CCC(CC2)C1C(=O)N1CCN(Cc2ccc(F)cc2)CC1 (stereo not given)	-10	-1	i	-8	3	6	0	-5
COc1cccc(/C=C2/NC(=O)NC2=O)c1OCC(=O)Nc1ccccc1	4	2	i	-16	3	-1	-8	3
CCCOc1ccc(-c2nc(C#N)c(N3CCN(CC)CC3)o2)cc1	nt	-8	i	nt	-2	-5	-1	2
O=C1C=CC(=O)N1c1ccc2c(c1)Cc1cc(F)ccc1-2	-3	nt	nt	-10	3	4	nt	nt
Cc1nnc(SC(C(=O)Nc2cc(Cl)cc(Cl)c2)c2ccccc2)[nH]c1=O (stereo not given)	12	-4	i	nt	2	-3	12	nt
Cc1ccc(S(=O)(=O)N2CCOCC2)cc1C(=O)OCC(=O)N1CCc2ccccc2C1	nt	0	i	nt	-1	-2	-4	nt
O=[N+]([O-])c1cc(CN2CCC(O)CC2)ccc1Cl	10	0	i	nt	4	4	3	0
C=CCC[C@@H](Cc1ccc(F)cc1)C(=O)O[C@H](CNC(=O)[C@H](CC=C)CC(=O)N(CCO)Cc1ccccc1)c1ccccc1	11	nt	nt	-14	-34	-32	nt	42
Cc1cc(C)cc(NC(=O)COC(=O)CCn2c(C)csc2=O)c1	nt	nt	nt	-11	2	5	nt	8
O=S(=O)(c1cc(F)ccc1F)N1CCC2(CC1)OCCO2	60*	-7	i	2	-2	-1	6	7
Cc1onc(-c2ccccc2)c1C(=O)N1CCCC1	-6	-4	i	-7	-1	0	6	0
COc1ccc2c(c1)c(N=NC(N)=S)c(O)n2CC(=O)c1ccccc1	-53	2	i	-14	3	-1	-2	nt
Cc1cc(C)c2cc(C(=O)N3CCC(C(=O)c4ccc(F)cc4)CC3)[nH]c2c1	18	-2	i	-12	5	-9	8	29
CC(C)Oc1ccc(/C(O)=C2/C(=O)C(=O)N(Cc3cccnc3)C2c2ccco2)cc1 (stereo not given)	nt	-10	i	-22	5	0	0	-10
O=C(CSc1nnc(-c2cccc(F)c2)o1)Nc1nncs1	8	12	i	-20	1	0	1	-18
CC(=N)C1=C(O)CC(C)(C)CC1=O	nt	-12	i	0	0	2	-1	-1
O=C1CC(N2CCN(S(=O)(=O)c3ccc(Cl)cc3)CC2)C(=O)N1CCc1ccccc1 (stereo not given)	nt	-4	nt	8	0	-3	-9	20
COC(CSc1ncnc2c1oc1nc3c(cc12)COC(C)(C)C3)OC	7	-8	i	nt	2	-2	-2	17
CN(C)S(=O)(=O)c1ccc(SCC(=O)Nc2ccc3c(c2)OCCO3)nc1	-8	nt	nt	-12	2	-4	nt	nt
C/C=C/Cn1c(N2CCCCCC2)nc2c1c(=O)[nH]c(=O)n2C	nt	-11	i	-17	-6	-4	1	-10
Cc1cccc(COCC(Cc2ccccc2)N2CCN(C(=O)c3ccc(Cl)c(Cl)c3)CCC2=O)c1 (stereo not given)	95*	-5	i	-15	2	-5	4	14
O=C(OCC(=O)c1ccc(Cl)cc1Cl)c1ccc2c(c1)C(=O)N(c1cccc3ncccc13)C2=O	22	-1	i	-26	-3	1	7	1
COc1ccc(NC(=O)Nc2nccs2)cc1	-160	7	i	-12	11	2	-4	30
CCOc1ccc2c(c1)S/C(=C\c1cccs1)C(=O)N2	-400	42	i	-26	-28	1	10	10
COc1ccc(C(=O)COC(=O)Cn2cnc3ccccc3c2=O)c(OC)c1	-1	nt	i	nt	2	3	nt	-9

Quoted at random: two compounds from above
SMILES	HIV Env fusion	eIF4H inh	Rce1 inhib	Yeast UUG start	MT1-MMP act inh	MT1-MMP act inh RFP	PABP polyA inh	CSC inhib
CCCOc1ccc(-c2nc(C#N)c(N3CCN(CC)CC3)o2)cc1	nt	-8	i	nt	-2	-5	-1	2
O=[N+]([O-])c1cc(CN2CCC(O)CC2)ccc1Cl	10	0	i	nt	4	4	3	0

Some of these compounds in order of the MT1-MMP act inh RFP value, descending.
Molecule,MT1-MMP act inh RFP
COc1ccc(C(=O)COC(=O)Cn2cnc3ccccc3c2=O)c(OC)c1,3
O=C(CSc1nnc(-c2cccc(F)c2)o1)Nc1nncs1,0
O=S(=O)(c1cc(F)ccc1F)N1CCC2(CC1)OCCO2,-1

The results go on.
SMILES	HIV Env fusion	eIF4H inh	Rce1 inhib	Yeast UUG start	MT1-MMP act inh	MT1-MMP act inh RFP	PABP polyA inh	CSC inhib
CC(C)Cn1c(N2CCN(CC(=O)Nc3ccc(Cl)cc3)CC2)nc2ccccc21	4	-7	i	5	-4	-9	-6	-2
N#Cc1ccc(CN2CCN(C(=O)Cn3nc(C(N)=O)c4ccccc4c3=O)CC2)cc1	7	-4	nt	-8	2	-3	-1	-5
Cc1ccccc1NS(=O)(=O)c1ccc(C(=O)NCC(c2ccccc2)N(C)C)cc1 (stereo not given)	9	-10	+	-6	-2	-4	3	10
CC(=O)NC(Cc1c[nH]c2ccccc12)C(=O)Nc1ccc2c(c1)OCO2 (stereo not given)	nt	-11	i	-5	1	0	-3	1
CC1(C)CC(=O)C(C=NCCN2CCN(CC(=O)Nc3ccc(Cl)cc3)CC2)=C(O)C1	7	0	i	nt	1	5	0	5
CN(C(=O)c1ccc(NC(=O)Cc2ccc(NC(=O)C3CCN(C(=O)C4CCCC4)CC3)cc2)cc1)C1CCCC1	7	nt	nt	13	-4	-1	nt	nt
CC(=O)NC1(C2CCCCC2=O)CCCCC1 (stereo not given)	-43	-8	i	nt	7	5	5	-7
O=C(CCNS(=O)(=O)c1ccccc1)OCC(=O)c1ccc(F)cc1	nt	nt	i	nt	1	1	nt	-4
COc1cc(C2/C(=C(\O)c3ccc4c(c3)OCCO4)C(=O)C(=O)N2Cc2ccco2)ccc1O (stereo not given)	7	0	i	-27	3	4	12	nt
CSCCC(NS(=O)(=O)c1ccc(C)cc1)C(=O)N1CCCC1 (stereo not given)	2	2	nt	9	-4	3	3	-8
COC(=O)c1cc(S(=O)(=O)N2CCN(Cc3ccccc3)CC2)cn1C	-28	-8	i	-4	4	1	3	nt
O=S(=O)(NCc1cc(-c2ccccc2Cl)no1)c1ccccc1	-55	-12	i	0	-2	1	-11	-6
C=CC[C@H]1CC(C)=C[C@H](CC=C)N1C(=O)c1cc(COc2ccccc2SC)on1	10	29	i	6	-8	-8	-11	2
COc1cccc(/C=N/Nc2nnc(C)n2N)c1O	4	6	i	-15	1	3	8	5
Cc1ccccc1OCC(=O)NCC(=O)OCC(=O)c1ccc([N+](=O)[O-])cc1	9	11	nt	0	-4	2	3	1
COc1cc(C2C(C(=O)c3ccco3)=C(O)C(=O)N2Cc2cccnc2)cc(OC)c1OC (stereo not given)	nt	-5	nt	-9	3	4	-7	-6
CC(CC(=O)N1CCN(S(=O)(=O)c2ccc([N+](=O)[O-])cc2)CC1)c1ccccc1 (stereo not given)	13	nt	nt	-5	2	-2	nt	-9
C#CCOCCOCCOCCNc1nc(N2CCN(C(=O)CCCCCCCCCCNC(=O)[C@H](CCCCN)n3cc(C)nn3)CC2)nc(N2CCN(C(=O)CCCCCCCCCCNC(=O)[C@H](CCCCN)n3cc(CCCC(=O)O)nn3)CC2)n1	nt	nt	nt	9	7	8	nt	-3
Cc1cc(C)cc(CN2C(=O)NC3(CCCCCC3)C2=O)c1	-3	-3	i	2	-4	-1	-4	3
Cc1ccc2c(c1)C(c1ccc(F)cc1)N(C(=O)C1CC1)CC(=O)N2 (stereo not given)	-17	-6	i	-36	3	2	0	-7
CCN(CC(=O)Nc1c(F)cccc1F)C(=O)c1ccc(C#N)cc1	3	13	i	10	0	-6	13	3
O=[N+]([O-])c1cc(-c2csc(NCCc3nc4cc(Cl)c(N5CCCCC5)cc4n3CCCO)n2)ccc1Cl	23	nt	i	-21	7	-3	nt	0
CC[C@H](C)[C@H](NC(N)=O)C(=O)OCC(=O)NCc1ccc(Cl)cc1	-21	2	nt	nt	-1	1	2	-2
CCOc1ccccc1NCc1cc(=O)oc2cc(C)c(O)cc12	14	6	i	-18	4	3	-4	3
O=C(Nc1ccc(Cl)cc1)Nc1cc(S(=O)(=O)N2CCOCC2)ccc1N1CCCC1	1	-6	i	nt	1	-4	-2	-4
Cc1cc2cc(CN(Cc3cccs3)C(c3nnnn3C(C)(C)C)C(C)C)c3nnnn3c2cc1C (stereo not given)	nt	-2	i	-22	-44	-34	3	nt
O=S(=O)(Nc1ccc2c(c1)OCCO2)c1cccc2nsnc12	nt	5	i	nt	9	3	-12	-10
COc1ccc([C@H]2CC(=O)C=C(/C=C/Cc3ccccc3)C2)cc1	-13	nt	nt	-19	-7	-4	nt	33

An excerpt (hit frequency here may not be typical).
